# MLL AF4-AF9 inh: blocks AF4 peptide binding to human AF9. P42568. AlphaScreen, biotin-AF4 peptide binding to FLAG-AF9. inhibition, % at 10 µM. 0.47% of 350,000 active;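 active = every replicate reaching a set inhibition limit, whatever the replicate mean, cut at about 25% in these data; inconclusive = mean inhibition reaches that limit but some replicates miss it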;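 note: 0% = plate neutral control median and 100% = total signal loss; the record names both 10 and 1 µM as test concentration; the first replicate is given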
# Target sequence (P42568 whole entry, looked up): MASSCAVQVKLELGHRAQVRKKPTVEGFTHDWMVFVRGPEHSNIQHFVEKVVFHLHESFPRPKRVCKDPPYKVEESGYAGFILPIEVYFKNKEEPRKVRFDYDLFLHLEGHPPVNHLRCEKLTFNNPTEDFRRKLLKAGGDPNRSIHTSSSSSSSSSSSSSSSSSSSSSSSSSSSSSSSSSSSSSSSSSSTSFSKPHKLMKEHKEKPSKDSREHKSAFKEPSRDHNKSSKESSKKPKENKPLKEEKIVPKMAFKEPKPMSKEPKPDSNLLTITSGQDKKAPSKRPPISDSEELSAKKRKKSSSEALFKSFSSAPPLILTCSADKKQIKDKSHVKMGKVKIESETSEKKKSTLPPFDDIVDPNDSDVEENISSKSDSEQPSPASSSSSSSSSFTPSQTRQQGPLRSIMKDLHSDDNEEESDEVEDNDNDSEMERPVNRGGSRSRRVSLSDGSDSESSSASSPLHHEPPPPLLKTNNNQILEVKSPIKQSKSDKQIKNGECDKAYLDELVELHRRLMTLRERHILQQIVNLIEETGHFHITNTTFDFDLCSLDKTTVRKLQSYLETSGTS
# * hit, by the source's call; u = inconclusive; & = joins results of further samples.
smiles | MLL AF4-AF9 inh
COc1ccc(NC(=O)Nc2ccc3c(c2)C(=O)N([C@@H](C)CO)C[C@@H](C)[C@H](CN(C)C(=O)Nc2cccc4ccccc24)OCCCC[C@H](C)O3)cc1 | -1.7
CO[C@H]1CN(C)C(=O)c2ccc(NS(=O)(=O)CC(F)(F)F)cc2OC[C@@H](C)NC[C@@H]1C | 0.6
COc1ccc(NC(=O)N(C)C[C@@H]2Oc3ncc(C#Cc4ccc(OC)c(OC)c4)cc3C(=O)N([C@H](C)CO)C[C@@H]2C)cc1 | 2.1
CNC[C@H]1Oc2ncc(Br)cc2C(=O)N([C@H](C)CO)C[C@@H]1C | -9.5
CN(C)C(=O)[C@H]1[C@H](CO)[C@H]2Cn3c(cccc3=O)[C@H]2N1C(=O)C1CCC1 | -12
CC(C)NC(=O)N(C)C[C@@H]1Oc2ccc(NS(=O)(=O)c3cccs3)cc2CC(=O)N([C@H](C)CO)C[C@H]1C | -1.8
CNc1cncc(-c2ccc(O)cc2C)n1 | -2.0
C[C@@H]1CN([C@H](C)CO)S(=O)(=O)c2ccc(C3=CCCC3)cc2O[C@H]1CN(C)Cc1ccccn1 | -10
CCCC(=O)Nc1ccc2c(c1)C(=O)N(C)C[C@H](OC)[C@H](C)CN(Cc1ccccc1F)[C@@H](C)CO2 | -0.8
Cc1ccc(-c2cnc3c(c2)C(=O)N([C@@H](C)CO)C[C@H](C)[C@H](CN(C)C(=O)Cc2cccnc2)O3)cc1 | -10
CC(=O)N1[C@@H]2c3cccc(=O)n3C[C@H]1[C@H](CO)[C@H]2C(=O)N1CCc2ccccc2C1 | -3.2
COC(=O)C[C@H]1CC[C@H]2[C@@H](COc3ccc(NC(=O)Nc4ccc(C)cc4)cc3C(=O)N2C)O1 | 2.4
C[C@H]1CN([C@@H](C)CO)C(=O)c2cc(C3=CCCC3)cnc2O[C@H]1CN(C)Cc1ccccc1 | -2.4
COC(=O)[C@]12CCCCC=C1N(Cc1ccc3c(c1)OCO3)C(=O)[C@H](CC(=O)NCc1cccs1)C2 | 1.3
COc1ccc2c3c(n(C)c2c1)[C@H](CO)N(C(=O)c1ccccn1)CC31CN(C)C1 | -0.7
O=c1[nH]c(-c2ccccc2)nc(CN2CCCCC2)c1O | -4.0
O=C(C[C@@H]1CC[C@@H]2[C@H](COC[C@H](O)CN2Cc2cccc(-c3ccncc3)c2)O1)N1CCN(c2ccccc2)CC1 | 8.6
CCS(=O)(=O)Nc1ccc2c(c1)C(=O)N(C)[C@@H]1CC[C@H](CC(=O)NCCCN3CCOCC3)O[C@H]1CO2 | -1.9
Cc1ccc(S(=O)(=O)N(C)C[C@H]2OCCCC[C@H](C)Oc3ccc(NC(=O)Nc4ccccc4)cc3C(=O)N([C@@H](C)CO)C[C@H]2C)cc1 | 1.8
COc1cccc(C(=O)Nc2ccc3c(c2)OC[C@H](C)N(C(C)=O)C[C@@H](C)[C@@H](OC)CN(C)C3=O)c1 | -0.1
Brc1ccc2nc(-c3ccco3)c(Cc3ccccc3)n2c1 | -1.6
CC(C)NC(=O)N[C@H]1C=C[C@H](CC(=O)NC2Cc3ccccc3C2)O[C@@H]1CO | -15
CCCC(=O)Nc1ccc2c(c1)C(=O)N(C)C[C@@H](OC)[C@H](C)CN(Cc1cncnc1)[C@@H](C)CO2 | -0.6
C[C@H]1CCCCO[C@H](CN(C)Cc2ccncc2)[C@@H](C)CN([C@@H](C)CO)C(=O)c2cc(NS(C)(=O)=O)ccc2O1 | -3.9
CCCC#Cc1ccc([C@@H]2[C@@H](CO)N3C(=O)CN(C(=O)Nc4ccc(F)cc4)C[C@H]23)cc1 | 1.0
Clc1ccc(-c2nc3ccc(Br)cn3c2Cc2cccc(Cl)c2)cc1 | 1.5
COc1cccc(NC(=O)N(C)C[C@@H]2Oc3cc(-c4cccc(C(=O)N(C)C)c4)ccc3S(=O)(=O)N([C@@H](C)CO)C[C@H]2C)c1 | -19
COc1ccc(S(=O)(=O)N(C)C[C@@H]2Oc3c(NS(=O)(=O)c4cccs4)cccc3C(=O)N([C@@H](C)CO)C[C@@H]2C)cc1 | -15
CC(C)NC(=O)Nc1ccc2c(c1)C(=O)N([C@H](C)CO)C[C@@H](C)[C@H](CN(C)S(=O)(=O)c1ccc(F)cc1)OCCCC[C@@H](C)O2 | 1.8
CCCC(=O)Nc1ccc2c(c1)C(=O)N(C)[C@@H]1CC[C@H](CC(=O)NCC3CCCCC3)O[C@@H]1CO2 | -0.3
C[C@@H]1CCCCO[C@@H](CN(C)Cc2ccc(C(=O)O)cc2)[C@H](C)CN([C@H](C)CO)C(=O)c2cc(NC(=O)Nc3ccc(C(F)(F)F)cc3)ccc2O1 | 3.9
CC1(C)CN(Cc2ccccc2)C(=O)[C@H]1CC(=O)Nc1ccccc1 | 1.0
CC(C)c1ccc(CC(=O)N2CCC2(C)C(=O)NCC(C)(C)C)cc1 (centres undefined) | u
CCCCN1C(=O)C(CC(=O)NCc2cccc3ccccc23)CC(C(=O)N2CCCCCC2)=C1C (centres undefined) | -3.8
COc1ccc(NC(=O)N(C)C[C@@H]2Oc3ncc(-c4ccc(OC)cc4)cc3C(=O)N([C@H](C)CO)C[C@@H]2C)cc1 | -0.6
Cc1ccc(S(=O)(=O)N(C)C[C@H]2OCCCC[C@@H](C)Oc3ccc(NC(=O)Nc4ccc(C(F)(F)F)cc4)cc3C(=O)N([C@H](C)CO)C[C@@H]2C)cc1 | -2.2
C[C@H](CO)N1C[C@H](C)[C@H](CN(C)C(=O)CC2CC2)Oc2ncc(C#CC3CC3)cc2C1=O | -4.3
Cc1noc(C)c1NC(=O)N(C)C[C@H]1Oc2ccc(NS(=O)(=O)c3cn(C)cn3)cc2C(=O)N([C@@H](C)CO)C[C@H]1C | -1.9
COc1ccc2nc(-c3ccc(CN4CCC5(CC4)CNc4ccccc45)cc3)c(-c3ccccc3)nc2c1 | 2.8
CC(C)CC#Cc1ccc([C@@H]2[C@H](CO)N3C(=O)CN(C(=O)CN4CCOCC4)C[C@@H]23)cc1 | -2.0
CCCNC(=O)C[C@@H]1CC[C@@H]2[C@H](COc3ccc(NC(=O)c4cccc(Cl)c4)cc3C(=O)N2C)O1 | -0.1
C/C=C/c1ccc([C@@H]2[C@@H](C#N)N(C(=O)Cc3ccccn3)[C@@H]2CO)cc1 | 2.4
CCCN1[C@@H]2c3ccc(C4=CCCC4)c(=O)n3C[C@@H]2[C@@H](CO)[C@@H]1C(=O)NC1Cc2ccccc2C1 | 1.0
CC(=O)N(C)C[C@H]1Oc2ncc(C#C[C@@H](C)O)cc2C(=O)N([C@@H](C)CO)C[C@H]1C | -6.1
C[C@@H]1CN([C@@H](C)CO)C(=O)CCCn2cc(nn2)CO[C@H]1CN(C)S(=O)(=O)c1ccc2ccccc2c1 | 0.9&-3.3
C[C@H](CO)N1C[C@H](C)[C@H](CN(C)S(C)(=O)=O)Oc2cc(C#Cc3ccccc3)ccc2S1(=O)=O | 0.1
COc1ccc(C[C@H]2CCn3cc(nn3)COC[C@H](Cc3ccccc3)NC2=O)cc1 | -0.6
COc1ccc(C(=O)N2CCCC(C)(C(=O)NS(=O)(=O)C3CC3)C2)c(OC)c1 (centres undefined) | 0.1
COCC(=O)N(C)C[C@H]1Oc2ncc(-c3ccc(C#N)cc3)cc2C(=O)N([C@H](C)CO)C[C@H]1C | -5.1
CCc1nc2ccc(C(=O)NCCOc3ccc(OC)cc3)cn2c1N(CC)CCN(C)C | 2.1

# Next entries follow.
structure,MLL AF4-AF9 inh
C[C@@H]1CN([C@@H](C)CO)C(=O)Cc2cc(NS(=O)(=O)c3ccc(F)cc3)ccc2O[C@H]1CN(C)C(=O)Nc1ccc(F)cc1,4.7
CC(C)NC(=O)N(C)C[C@@H]1Oc2ncc(C#CC3CCCC3)cc2C(=O)N([C@H](C)CO)C[C@@H]1C,-1.4
C[C@@H]1CN([C@H](C)CO)C(=O)Cc2cc(NC(=O)Cc3cn(C)c4ccccc34)ccc2O[C@@H]1CN(C)Cc1ccc(-c2ccccc2)cc1,2.5
COCC(=O)N(C)C[C@@H]1Oc2ncc(C#C[C@@H](C)O)cc2C(=O)N([C@H](C)CO)C[C@H]1C,-1.9
CN1CCN(C(=O)C[C@@H]2CC[C@H](NC(=O)c3ccc4c(c3)OCO4)[C@@H](CO)O2)CC1,-0.4
CC(=O)N1C[C@@H](CO)[C@@H](N(C)C(=O)C(C)(C)C)C[C@H]1c1ccccc1,-0.8
C[C@H](CO)N1C[C@H](C)[C@H](CN(C)Cc2ccncc2)Oc2cc(C3=CCCC3)ccc2S1(=O)=O,-0.7
C/C=C/c1ccc([C@@H]2[C@H](CO)N3C(=O)CN(Cc4ccc(C(=O)OC)cc4)C[C@@H]23)cc1,5.4
COc1ccc(NC(=O)N(C)C[C@H]2Oc3c(NS(C)(=O)=O)cccc3C(=O)N([C@H](C)CO)C[C@@H]2C)cc1,-1.0
NC(Cc1ccc(C(F)(F)F)cc1)c1csc(Nc2cc(Oc3ccccc3)ncn2)n1 (centres undefined),1.7
COCC(=O)Nc1ccc2c(c1)C(=O)N(C)C[C@H](OC)[C@@H](C)CN(C(=O)c1ccccc1)[C@H](C)CO2,0.1
Cc1ccc(C)c(CC(=O)N2CCCC(c3cc(C(=O)Nc4ccccc4Cl)no3)C2)c1 (centres undefined),-1.9
COc1ccc(NC(=O)N(C)C[C@H]2Oc3cc(-c4ccncc4)ccc3S(=O)(=O)N([C@@H](C)CO)C[C@H]2C)cc1,-2.9
C[C@H]1CN([C@@H](C)CO)S(=O)(=O)c2ccc(C#CCN(C)C)cc2O[C@@H]1CN(C)Cc1ccccc1F,21
C[C@H](CO)N1C[C@H](C)[C@@H](CN(C)Cc2ccccc2)Oc2ccc(NS(=O)(=O)c3cn(C)cn3)cc2C1=O,-1.0
O=C(c1ccccc1F)N1C[C@@H]2[C@H](c3ccccc31)[C@H](CO)N2C(=O)c1ccc(F)cc1,-21
CN1C(=O)c2cc(NC(=O)Cc3ccccc3)ccc2OC[C@@H]2O[C@H](CC(=O)O)CC[C@H]21,-2.3
COc1ccc2c3c([nH]c2c1)[C@H](CO)N(C(=O)Cc1ccccc1)CC31CCN(C)CC1,8.7
O=C(OCC(=O)N(CCc1ccccc1)Cc1ccccc1)c1cccc(S(=O)(=O)N2CCOCC2)c1,3.8
N#C[C@@H]1[C@@H](c2ccccc2C2=CCCCC2)[C@H](CO)N1C(=O)NC1CCCC1,-1.0
Cc1ccccc1S(=O)(=O)N1CC(=O)N2[C@@H](CO)[C@H](c3ccc(C#CCN(C)C)cc3)[C@@H]2C1,-0.7
C[C@@H]1CN([C@@H](C)CO)C(=O)c2cc(NC(=O)Nc3ccc(C(F)(F)F)cc3)ccc2O[C@@H](C)CCCCO[C@H]1CN(C)CC1CCCCC1,4.7
COCC(=O)Nc1ccc2c(c1)OC[C@@H](C)N(CCC(F)(F)F)C[C@H](C)[C@@H](OC)CN(C)C2=O,1.7
CCc1nc2ccc(C(=O)NCCCn3ccnc3)cn2c1N(C)Cc1cc2ccccc2s1,6.7
CC(=O)N(C)C[C@H]1Oc2cc(C#Cc3ccncc3)ccc2S(=O)(=O)N([C@@H](C)CO)C[C@H]1C,-6.1
CN1CCN(C(=O)C[C@@H]2CC[C@H](NC(=O)c3ccc4c(c3)OCO4)[C@H](CO)O2)CC1,-0.8
CCC(=O)N1CC2(C1)[C@@H](c1ccccc1)[C@@H](CO)N2C(=O)c1ccncc1,0.5
O=C(Nc1ccc(F)c(Cl)c1)c1cc(C2CCCN(S(=O)(=O)c3cccc4cccnc34)C2)on1 (centres undefined),-0.9
C[C@@H]1CN([C@@H](C)CO)C(=O)c2cc(NS(C)(=O)=O)ccc2O[C@H]1CN(C)Cc1ccccc1,-2.2
Cc1ccc(S(=O)(=O)Nc2ccc3c(c2)C(=O)N([C@H](C)CO)C[C@H](C)[C@H](CN(C)S(=O)(=O)c2cccs2)O3)cc1,-0.3

# An excerpt from above in order of their number in MLL AF4-AF9 inh, smallest number first.
smiles	MLL AF4-AF9 inh
CC(C)NC(=O)N[C@H]1C=C[C@H](CC(=O)NC2Cc3ccccc3C2)O[C@@H]1CO	-15
CC(=O)N(C)C[C@H]1Oc2ncc(C#C[C@@H](C)O)cc2C(=O)N([C@@H](C)CO)C[C@H]1C	-6.1
CC(=O)N1[C@@H]2c3cccc(=O)n3C[C@H]1[C@H](CO)[C@H]2C(=O)N1CCc2ccccc2C1	-3.2

# Exported as labelled records: entries from further up.
Cc1ccccc1S(=O)(=O)N1CC(=O)N2[C@@H](CO)[C@H](c3ccc(C#CCN(C)C)cc3)[C@@H]2C1
  MLL AF4-AF9 inh: -0.7

C[C@@H]1CN([C@@H](C)CO)C(=O)c2cc(NC(=O)Nc3ccc(C(F)(F)F)cc3)ccc2O[C@@H](C)CCCCO[C@H]1CN(C)CC1CCCCC1
  MLL AF4-AF9 inh: 4.7

COCC(=O)Nc1ccc2c(c1)OC[C@@H](C)N(CCC(F)(F)F)C[C@H](C)[C@@H](OC)CN(C)C2=O
  MLL AF4-AF9 inh: 1.7

CCc1nc2ccc(C(=O)NCCCn3ccnc3)cn2c1N(C)Cc1cc2ccccc2s1
  MLL AF4-AF9 inh: 6.7

# Remaining list, next part.
structure,MLL AF4-AF9 inh
Clc1cccc(CNc2ccn3nc(-c4ccco4)cc3n2)c1,4.2
COc1ccc2c3c(n(C)c2c1)[C@H](CO)N(C)CC31CN(C(=O)Nc2cccc(F)c2)C1,4.8
CC(=O)N(C)C[C@@H]1Oc2ncc(C#CC(C)(C)O)cc2C(=O)N([C@H](C)CO)C[C@@H]1C,-17
CCCNC(=O)N1CC2(C1)CN(C(=O)c1ccncc1)[C@H](CO)c1[nH]c3cc(OC)ccc3c12,-4.5
Cc1ccc(Cc2c(-c3ccc(C#N)cc3)nc3ccc(Cl)cn23)cc1,-0.4
CN(CCO)c1cccc2c1S(=O)(=O)N[C@H](Cc1ccccc1)CO2,-0.1
COc1ccc(S(=O)(=O)Nc2ccc3c(c2)CC(=O)N([C@H](C)CO)C[C@@H](C)[C@H](CN(C)Cc2ccc(-c4ccccc4)cc2)O3)cc1,-1.6
CS(=O)(=O)N1CC2(C1)[C@H](c1ccccc1)[C@@H](CO)N2CC1CCCC1,-17

# Source: PubChem BioAssay (Broad Institute)

# Only part of the results is shown. The share of hits here may be higher or lower than overall.
